Screening data as filed in PubChem BioAssay.
Arbovirus anti: arbovirus infection inhibition. 200,000 compounds, 0.37% hits. arbovirus infection cell-based antiviral screen. AID 1251. inhibition, % at 10 µM;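 active = inhibition from about 30%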;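 also: bluetongue infection of BSR cells; cell survival read as ATP light after 72 h; 0% = infected wells without compound and 100% = uninfected wells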
Mtb growth: M. tuberculosis H37Rv growth inhibitors, H37Rv strain (AID 1626) | M. tuberculosis H37Rv growth inhibition; higher % means a stronger effect | inhibition, % at 10 µM, or IC50 in µM where a hit was titrated | 220,000 compounds, 0.95% hits;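 active = confirmed in a dose series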;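 also: bacteria incubated seven days before Alamar blue readout; 0% = bacteria only wells and 100% = bacteria with antibiotic wells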
RecA intein inh: blocks M. tuberculosis RecA intein splicing; P9WHJ3; 290,000 compounds, 0.75% hits; cell-free RecA intein splicing, fluorescence; inhibition, %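 (about 9 µM by stock and volumes)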; AID 2221; in the data active = inhibition above about 30%;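 also: 0% = vehicle wells and 100% = reference inhibitor control wells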
Target sequence (P9WHJ3 whole entry, looked up): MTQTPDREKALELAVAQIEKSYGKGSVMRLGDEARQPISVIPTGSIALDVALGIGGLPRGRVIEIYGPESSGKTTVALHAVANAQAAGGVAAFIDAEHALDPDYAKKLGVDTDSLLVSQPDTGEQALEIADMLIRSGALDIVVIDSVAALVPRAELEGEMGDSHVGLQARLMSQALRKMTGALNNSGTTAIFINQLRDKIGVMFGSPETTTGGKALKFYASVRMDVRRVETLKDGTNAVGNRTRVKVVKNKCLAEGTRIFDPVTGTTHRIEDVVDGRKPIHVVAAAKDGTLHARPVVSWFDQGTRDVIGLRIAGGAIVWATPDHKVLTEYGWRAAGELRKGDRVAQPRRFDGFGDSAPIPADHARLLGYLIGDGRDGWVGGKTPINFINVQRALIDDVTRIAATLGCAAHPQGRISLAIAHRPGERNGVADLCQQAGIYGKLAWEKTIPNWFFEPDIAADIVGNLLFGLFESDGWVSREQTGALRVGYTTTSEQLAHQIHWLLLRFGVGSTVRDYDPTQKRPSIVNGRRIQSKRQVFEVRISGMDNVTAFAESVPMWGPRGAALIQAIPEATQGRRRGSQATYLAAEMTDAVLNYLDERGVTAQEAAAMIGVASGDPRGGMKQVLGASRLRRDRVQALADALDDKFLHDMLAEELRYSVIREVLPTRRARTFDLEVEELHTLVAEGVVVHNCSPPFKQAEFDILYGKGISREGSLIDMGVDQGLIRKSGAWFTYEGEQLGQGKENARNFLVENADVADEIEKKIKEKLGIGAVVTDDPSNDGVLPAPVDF
YopH inh: blocks Yersinia enterocolitica YopH tyrosine phosphatase; fluorescence Ex485/Em525; inhibition, %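 (about 10 µM by stock and volumes)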; 140,000 compounds, 0.16% hits; AID 898;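 active = inhibition of 50% or more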;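 also: controls were vehicle for no effect and minimum signal wells for full effect; inactives centre near -20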
Mtb betalactam: beta-lactam sensitization of Mtb H37Rv. M. tuberculosis H37Rv growth with meropenem, percent inhibition; hits of this screen are not shown here. inhibition, % at 25 µM. 330,000 compounds, 0.27% hits. AID 434955;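 active = about 74% or more and at least 40 points above the plate without the antibiotic, then above 30% in a dose series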;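 also: growth measured after seven days incubation then overnight dye step; 0% = bacteria only wells and 100% = bacteria with antibiotic; twin plates without the antibiotic show which effects depend on it; some results filed as inactive read as strong as hits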
Numbers without * were called inactive; x = no result given. These rows are one share of the data. The share of hits here may be higher or lower than overall.

Under each structure: Arbovirus anti | Mtb growth | RecA intein inh | YopH inh | Mtb betalactam
> Cc1cc(N2C(=O)C3C4C=CC(C4)C3C2=O)ccc1Br (centres undefined)
→ -4 | -3% | 2.8 | -6 | -2
> CC1CN(C2CCCCC2)c2nc3c(c(=O)n(C)c(=O)n3C)n2C1 (centres undefined)
→ 6 | -9% | -1.8 | -6 | -1
> COCCNc1nc2nonc2nc1N1CCCC1c1nccs1 (centres undefined)
→ 6 | 1% | -22 | x | -5
> NS(=O)(=O)c1ccc(NCc2c(F)cccc2Cl)cc1
→ -5 | 7% | 0.1 | -16 | x
> O=c1[nH]c(N2CCCCCC2)nc2ncn(Cc3ccccc3)c12
→ x | -10% | 2.3 | x | -12
> Nc1cc(=O)[nH]c(=O)n1Cc1ccco1
→ 0 | -13% | 2.7 | -28 | 0
> Cc1cc(C)nc(NC(=NCCc2c[nH]c3ccccc23)NC(=O)Nc2ccc(Cl)c(Cl)c2)n1
→ 13 | 39% | 1.8 | -11 | 25
> N#Cc1c(C(F)(F)F)cc(-c2ccccc2)nc1SCC(=O)Nc1sc2c(c1C#N)CCC2
→ 18 | 4% | -0.4 | -29 | 81
> CCS(=O)(=O)Nc1ccc(C2=NN(S(C)(=O)=O)C(c3cccs3)C2)cc1 (centres undefined)
→ 4 | -9% | -1.4 | x | -1
> CCCCCCC(=O)c1c(O)n(-c2ccccc2OC)c(=O)[nH]c1=O (tested in a mixture with another compound)
→ x | -2% | -11 | x | -8
> CCOc1ccc(NC(=O)CNC(=O)c2nn(-c3ccc(OC)cc3)c(=O)c3ccccc23)cc1
→ x | x | -2.0 | x | 3
> CN1C(=O)CC(N2CCN(C(c3ccccc3)c3ccccc3)CC2)C1=O (centres undefined)
→ 8 | 0% | 0.1 | -17 | -7
> CCOC(=O)N1CCN(Cc2nc3c(c(=O)n(C)c(=O)n3C)n2Cc2ccccc2C)CC1
→ -7 | -4% | 2.0 | -33 | 0
> O=C(CNC(=O)c1cccs1)NC1=NCCS1
→ 0 | 3% | -1.6 | -63 | -2
> CCN(CC)C(=O)c1cccc(NC(=O)c2ccc3c(=O)n4c(nc3c2)CCC4)c1
→ x | x | 0.2 | x | 0
> COc1ccc(Cl)cc1NC(=O)COC(=O)/C=C/c1c(C)nn(C2CCS(=O)(=O)C2)c1Cl (centres undefined)
→ -4 | -22% | 0.8 | 13 | -14
> CC(=O)c1ccc(OC(NC(=O)Cc2ccccc2)C(Cl)(Cl)Cl)cc1 (centres undefined)
→ -3 | 1% | 1.4 | -20 | 0
> O=C(NCC1CCCO1)C(=O)NCC1CCCN1S(=O)(=O)c1ccccc1 (centres undefined)
→ x | x | 2.4 | x | -3
> C/C(=N/NC(=O)CNC(=O)c1ccccc1F)c1ccc2c(c1)CCCC2
→ -15 | -10% | -3.6 | x | 7
> Cc1ccc(N2CC(C(=O)N/N=C/c3cccc([N+](=O)[O-])c3)CC2=O)cc1 (centres undefined)
→ -5 | 4% | 0.2 | -38 | 7

Record cards (already shown):
Entry for `CN1C(=O)CC(N2CCN(C(c3ccccc3)c3ccccc3)CC2)C1=O` (centres undefined) = Arbovirus anti: 8; Mtb growth: 0%; RecA intein inh: 0.1; YopH inh: -17; Mtb betalactam: -7
Entry for `CC(=O)c1ccc(OC(NC(=O)Cc2ccccc2)C(Cl)(Cl)Cl)cc1` (centres undefined) = Arbovirus anti: -3; Mtb growth: 1%; RecA intein inh: 1.4; YopH inh: -20; Mtb betalactam: 0

Limited to Mtb betalactam and RecA intein inh, for 3 of the compounds above:
smiles	Mtb betalactam	RecA intein inh
O=C(CNC(=O)c1cccs1)NC1=NCCS1	-2	-1.6
CCN(CC)C(=O)c1cccc(NC(=O)c2ccc3c(=O)n4c(nc3c2)CCC4)c1	0	0.2
COc1ccc(Cl)cc1NC(=O)COC(=O)/C=C/c1c(C)nn(C2CCS(=O)(=O)C2)c1Cl (centres undefined)	-14	0.8

Next section
Under each structure: Arbovirus anti | Mtb growth | RecA intein inh | YopH inh | Mtb betalactam
> COC(=O)N1C(=O)[C@](c2ccc(Cl)cc2)(C(C)C)N1C(=O)OC
→ x | x | 1.0 | x | 6
> CCN(CC)Cc1c(-c2ccccc2)[nH]c2ccc(C)cc2c1=O
→ -5 | -7% | -1.2 | -2 | 7
> Cc1ccc(C(C)NC(=O)Cn2nc(C)c([N+](=O)[O-])c2C)cc1 (centres undefined)
→ 7 | 4% | 1.9 | -26 | -3
> COc1ccccc1C(C)NS(=O)(=O)c1ccc(Cl)nc1 (centres undefined)
→ x | x | -7.0 | x | 3
> Cc1cccc(OCC(=O)NNC(=O)c2ccc([N+](=O)[O-])cc2)c1
→ 8 | 0% | -0.9 | x | 11
> O=C(Nc1nc2ccccc2[nH]1)C12CC3CC(CC(C3)C1)C2
→ -11 | 2.3µM* | -4.4 | -8 | 100
> O=C(CN(CCc1ccccc1)C(=O)CNS(=O)(=O)c1ccccc1)NCC1CCCO1 (centres undefined)
→ -2 | -3% | -0.6 | 2 | 9
> Cc1cc(NC(=O)CSc2nc3ccccc3n2CCC#N)no1
→ 2 | 4% | -0.3 | x | 2
> Cc1ccc(S(=O)(=O)N2CCN(CC(=O)N/N=C/c3ccc(C)o3)CC2)cc1
→ -11 | -2% | -3.9 | -26 | -10
> CCN1CCN(c2cc(C)c3cc(NC(=S)N4CCOCC4)ccc3n2)CC1
→ -8 | -6% | -7.1 | x | -6
> Cc1ccc(C(=O)NNC(=O)Cc2cccs2)cc1
→ 1 | -2% | -0.4 | 8 | -2
> CC(C)(C)SC(=O)C[C@@H]1NS(=O)(=O)OC2CCCCC21 (some centres undefined)
→ x | x | 0.3 | x | 6
> CCOC(=O)N1CCc2[nH]c3ccc(C)cc3c2C1
→ -6 | 1% | -2.2 | x | -2
> CC(=O)Nc1ccc(NC(=O)CSc2nnc(-c3ccc(NS(C)(=O)=O)cc3)n2C)cc1C
→ -2 | -4% | 1.3 | x | -2
> COc1ccc(Cc2nc3ccc(C(=O)N4CCCN(C=O)CC4)cc3o2)cc1
→ x | x | 1.8 | x | -2
> CCCN(C(=O)CCOc1ccc(C(C)(C)C)cc1)c1c(N)n(Cc2ccccc2)c(=O)[nH]c1=O
→ x | x | -2.3 | x | 82
> O=C(COC(=O)COc1ccc(Br)cc1)Nc1cccnc1Cl
→ 6 | 3% | 0.9 | -30 | 4
> COc1ccc(C2=NOC(Cn3nc(C(=O)NCc4cccs4)cc3-c3ccccc3)C2)cc1 (centres undefined)
→ x | x | -2.3 | x | 60
> Cc1cc(Br)ccc1SCC(=O)OCC(=O)Nc1ccccc1C#N
→ -11 | 0% | 4.7 | -24 | 1
> CC(NC(=O)c1cccnc1)C(c1ccccc1)N1CCN(C)CC1 (centres undefined)
→ -3 | -5% | 0.1 | 14 | x
> CCCCn1c(NCc2ccc3c(c2)OCO3)nc2ccccc21
→ -2 | -1% | 4.8 | -14 | 96
> COc1cccc(CN(C(=O)c2cccc(OC)c2)C2CCS(=O)(=O)C2)c1 (centres undefined)
→ x | x | 3.1 | x | -6
> Cc1cc(C)n2ncc(C(=O)NCc3ccccc3)c2n1
→ 2 | 0% | 1.1 | 0 | -8
> Cc1cc(C(=O)N/N=C\c2ccc(COc3ccc([N+](=O)[O-])cc3)o2)ccc1[N+](=O)[O-]
→ -1 | 28% | x | -16 | 69
> c1ccc(CCN2CCN(c3ncnc4c3cnn4-c3ccccc3)CC2)cc1
→ -8 | -1% | 7.7 | 2 | 95
> CN1CCN(C(=O)COc2ccc(S(=O)(=O)N(C)Cc3ccccc3)cc2)CC1
→ 6 | -12% | 1.4 | -2 | 3
> CCNS(=O)(=O)c1c(C)cc(N2CCCC2=O)cc1C
→ -7 | -1% | 1.8 | -7 | -2
> CCCCN(C)CCCNC(=O)c1cccc(N2CCCC2=O)c1
→ -2 | -2% | -0.8 | 4 | -3
> COc1ccc(C2/C=C\CN(C(=O)c3ccccc3)[C@H](Cc3ccccc3)C(=O)N2Cc2ccc(F)cc2)cc1 (some centres undefined)
→ x | 2% | 20 | x | -12
> O=C(NC1CC1)C1CCN(c2nc3ccccc3s2)CC1
→ x | x | -0.7 | x | -6
> Cc1ccc2c(c1)C1C=CCC1C(C(=O)NCCCN1CCOCC1)N2 (centres undefined)
→ x | -12% | 4.4 | x | -7
> Cc1nnc(SCCn2c(N3CCN(Cc4ccccc4)CC3)nc3c2c(=O)[nH]c(=O)n3C)s1
→ 8 | -1% | 0.7 | -29 | 8
> COc1ccc(O)c(/C=N/NC(=S)Nc2cccnc2)c1
→ -2 | 4% | -103 | x | 4
> c1nc(N2CCOCC2)c2[nH]cnc2n1
→ x | -12% | 0.5 | -31 | -9
> COc1ccc(Br)cc1CNC(=O)CCC(=O)N1CCSc2ccccc21
→ x | x | 4.5 | x | 0
> CCN(CC)CCN1C(=O)C2C(C(=O)Nc3cccc(SC)c3)C3C=CC2(O3)C1C(=O)NC1CCCC(C)C1C (centres undefined)
→ x | x | 1.8 | x | 3
> CCOc1ccc(N(CC(=O)Nc2ccc(C)c(Cl)c2)S(C)(=O)=O)cc1
→ x | x | -1.9 | x | -7
> O=C(N/N=C/c1ccc(OCC2COCCO2)cc1)c1ccc(Br)cc1 (centres undefined)
→ -8 | -3% | 0.2 | x | 3
> CC(C)(C)C(=O)Nc1nc2c(c(=O)[nH]1)CCCC2
→ 25 | 17% | -1.6 | x | 1
> CC1(C)NC(=O)N(CC(O)COc2ccccc2-c2ccccc2)C1=O (centres undefined)
→ -1 | 3% | -0.7 | -52 | -4
> COc1cc(C2C=C(C34CC5CC(CC(C5)C3)C4)NC(=S)N2)cc(OC)c1OC (centres undefined)
→ 8 | 9% | -0.6 | -5 | 45
> CCOC(=O)CNC(=O)CSc1nnc(COc2ccc(Cl)cc2)n1CC
→ 9 | 0% | 24 | -19 | -4
> COc1cccc(C(Nc2ccccn2)c2oc(CO)cc(=O)c2O)c1 (centres undefined)
→ 4 | 5% | -3.3 | x | 1
> O=C(COC(=O)C1CCCN1C(=O)C12CC3CC(CC(C3)C1)C2)c1ccc(Br)cc1 (centres undefined)
→ 1 | 1% | 2.5 | -14 | -1
> CSc1cccc(CN2CCCC(CNC(=O)c3ccc(F)cc3)C2)c1 (centres undefined)
→ -2 | 5% | -1.9 | x | 1
> CCC(C)n1c(=S)[nH]c2c(sc3ccc([N+](=O)[O-])cc32)c1=O (centres undefined)
→ -3 | 59% | 1.6 | 4 | 8
> O=C(c1ccc(Cl)c(NC2=NC3CS(=O)(=O)CC3S2)c1)N1CCN(c2ccc(F)cc2)CC1 (centres undefined)
→ x | x | -0.3 | x | -8
> Cc1ccc(NC(=O)Cc2n[nH]c(=S)n2C)cc1
→ 0 | x | 2.5 | x | 2
> Cn1c(COc2ccccc2)nnc1SCC(=O)NC1CCCC1
→ x | x | -1.5 | x | 5
> O=C(NC1CCCN(c2ccc(C(F)(F)F)cn2)C1)c1ccncc1 (centres undefined)
→ x | x | -3.8 | x | 6

The results go on.
Under each structure: Arbovirus anti | Mtb growth | RecA intein inh | YopH inh | Mtb betalactam
> O=C(O)CSc1ncnc2c1sc1nc(-c3ccccc3)c3c(c12)CCC3
→ x | 0% | 3.1 | x | x
> O=C(Nc1cc(C(F)(F)F)ccc1N1CCCCC1)c1ccco1
→ -4 | 8% | -0.6 | -29 | 2
> Cc1ccccc1NC(=S)N1CCOCC1
→ -12 | -2% | -2.6 | -14 | -5
> Cc1cc(C)cc(-n2c(N)c(C(=O)Nc3c(C)n(C)n(-c4ccccc4)c3=O)c3nc4ccccc4nc32)c1
→ -38 | 77% | 2.7 | -2 | 76
> CC1(C)Cc2c(sc3c4nnnn4c4nnnn4c23)CO1
→ -14 | -2% | x | 17 | x
> COCC(C)n1c(C)cc(C(=O)COC(=O)C2=NN(c3ccccc3)C(=O)CC2)c1C (centres undefined)
→ 3 | 6% | -0.9 | x | -4
> Cn1c(=O)n(C)c2cc(NC(=O)COc3ccccc3)ccc21
→ x | x | 0.7 | x | 1
> COc1cc(-c2nc(S(=O)(=O)c3ccc(C)cc3)c(N3CCOCC3)o2)cc(OC)c1OC
→ 16 | x | -1.5 | -11 | 94
> Cc1c(C)n2c(SCC(=O)N3CCCCCC3)nnc2[nH]c1=O
→ x | x | -3.2 | x | -3
> CSc1nc(-c2ccc(C)cc2)nc(C(Cl)Cl)n1
→ -24 | x | -1.7 | -19 | 82
> Cc1ccc(NC(=O)CSc2ccc(C(N)=O)cc2[N+](=O)[O-])cc1C
→ -12 | -3% | 1.0 | x | -10
> CCCc1cc(=O)oc2c(C)c(OCC(=O)NCc3ccccn3)ccc12
→ x | x | 1.8 | x | 1

As entered above.
Reading for Cc1cc(C)cc(-n2c(N)c(C(=O)Nc3c(C)n(C)n(-c4ccccc4)c3=O)c3nc4ccccc4nc32)c1 under Arbovirus anti: -38
Reading for O=C(O)CSc1ncnc2c1sc1nc(-c3ccccc3)c3c(c12)CCC3 under Mtb growth: 0%
